mut p53 SMM = binders of human mutant p53, primary screen, biochemical, small molecule microarray, anti-GST fluorescence; mutant tumor protein p53 (GST-tagged), Homo sapiens; small molecule microarray binding; calls only; 0.4% of 17,000 active; AID 624136, 2012;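 active means compounds whose four printed spots each glow above background more than chance allows, each with a p-value under 7%; compounds were printed on slides so no solution concentration is given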;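 further: about 2 pmol printed per array spot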
ID4 binder = binders of human ID4 protein, primary screen, biochemical, small molecule microarray, single point. DNA-binding protein inhibitor ID-4 (Homo sapiens), P47928. Flag-ID4 binding, fluorescence F/B. calls only. 1.2% of 31,000 active;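 active means spot signal over background at p below 0.07 in all four prints; compounds were printed on slides so no solution concentration is given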;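 further: a binder raises fluorescence above local background on the spot; about 2 pmol printed per array spot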
Target sequence (P47928 whole entry, looked up): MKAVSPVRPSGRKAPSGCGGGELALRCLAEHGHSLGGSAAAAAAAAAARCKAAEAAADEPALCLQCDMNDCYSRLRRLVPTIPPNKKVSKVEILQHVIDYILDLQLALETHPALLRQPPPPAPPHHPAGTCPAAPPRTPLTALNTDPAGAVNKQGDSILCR
STAT3 SMM = STAT3 binders, primary screen, biochemical, small molecule microarray, single point, set 2; His-STAT3 binding, anti-His fluorescence; calls only; 0.2% of 17,000 active; Signal transducer and activator of transcription 3 (Homo sapiens), P40763;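 active means compounds whose four printed spots each show fluorescence over background unusually high for their array block, chance value under 7%; compounds were printed on slides so no solution concentration is given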;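 further: about 2 pmol printed per array spot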
Target sequence (P40763 whole entry, looked up): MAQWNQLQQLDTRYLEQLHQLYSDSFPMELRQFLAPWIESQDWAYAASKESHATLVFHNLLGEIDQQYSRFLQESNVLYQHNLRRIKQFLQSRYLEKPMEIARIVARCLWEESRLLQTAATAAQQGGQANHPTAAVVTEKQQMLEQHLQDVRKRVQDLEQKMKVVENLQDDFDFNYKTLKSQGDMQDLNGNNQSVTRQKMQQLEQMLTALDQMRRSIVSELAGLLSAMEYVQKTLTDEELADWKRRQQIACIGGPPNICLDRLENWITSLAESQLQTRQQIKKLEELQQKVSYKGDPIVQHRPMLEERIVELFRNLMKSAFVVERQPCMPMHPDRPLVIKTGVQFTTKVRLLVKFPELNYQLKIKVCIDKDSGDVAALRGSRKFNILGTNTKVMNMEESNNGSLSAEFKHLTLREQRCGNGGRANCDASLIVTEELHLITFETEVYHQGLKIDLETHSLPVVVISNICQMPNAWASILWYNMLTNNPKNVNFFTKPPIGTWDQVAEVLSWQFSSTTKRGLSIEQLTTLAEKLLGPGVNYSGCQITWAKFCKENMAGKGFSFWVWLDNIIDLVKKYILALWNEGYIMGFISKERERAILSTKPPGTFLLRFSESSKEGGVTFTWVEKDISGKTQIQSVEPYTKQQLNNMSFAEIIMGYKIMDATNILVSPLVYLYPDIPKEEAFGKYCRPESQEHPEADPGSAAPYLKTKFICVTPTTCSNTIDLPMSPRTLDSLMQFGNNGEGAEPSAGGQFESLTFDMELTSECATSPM
Myc binder = binders of human c-Myc, primary screen, biochemical, small molecule microarray, anti-His fluorescence | Myc proto-oncogene protein (Homo sapiens), P01106 | His-c-Myc binding | calls only | 1.5% of 17,000 active | AID 624141, 2012;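 active means spot fluorescence over background with P-value below 7% in all four replicate spots, showing protein binding; compounds were printed on slides so no solution concentration is given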;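 further: score is binary with 100 for all four spots passing and 0 otherwise; about 2 pmol printed per array spot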
Calls only; i = inactive; x = no result given; + = active, no number. These rows are one share of the data; count on the stated rates, not on these rows.

Start of the data: the first 2 compounds as a preview:
SMILES | mut p53 SMM | ID4 binder | STAT3 SMM | Myc binder
CC(C)NC(=O)N(C)C[C@@H]1OCCCC[C@H](C)Oc2ccc(NS(C)(=O)=O)cc2C(=O)N([C@@H](C)CO)C[C@@H]1C | i | i | i | i
CNc1ncnc2c1ncn2[C@@H]1O[C@H](CO)[C@@H](O)[C@H]1O | i | i | i | i

The list itself, repeating the preview:
SMILES | mut p53 SMM | ID4 binder | STAT3 SMM | Myc binder
CC(C)NC(=O)N(C)C[C@@H]1OCCCC[C@H](C)Oc2ccc(NS(C)(=O)=O)cc2C(=O)N([C@@H](C)CO)C[C@@H]1C | i | i | i | i
CNc1ncnc2c1ncn2[C@@H]1O[C@H](CO)[C@@H](O)[C@H]1O | i | i | i | i
COc1ccccc1NC(=O)N(C)C[C@@H]1OCc2cnnn2CCCC(=O)N([C@H](C)CO)C[C@@H]1C | i | i | i | i
Cc1noc(C)c1S(=O)(=O)Nc1ccc2c(c1)C(=O)N([C@H](C)CO)C[C@@H](C)[C@@H](CN(C)C(=O)NC(C)C)O2 | i | x | i | i
CC1(C)CC[C@]2(C(=O)O[C@@H]3O[C@H](CO)[C@@H](O)[C@H](O)[C@H]3O)CC[C@]3(C)C(=CCC4[C@@]5(C)CC[C@@H](O[C@@H]6O[C@H](C(=O)O)[C@@H](O[C@@H]7OC[C@@H](O)[C@H](O)[C@H]7O)[C@H](O[C@@H]7OC[C@](O)(CO)[C@H]7O)[C@H]6O)C(C)(C)C5CC[C@]43C)C2C1 (stereo partly specified) | i | x | i | i
Cc1ccc(NC(=O)c2oc3ccccc3c2NC(=O)Cc2coc3ccc(C)cc23)cc1 | i | i | i | i
Cc1noc(C)c1S(=O)(=O)N(C)C[C@H]1Oc2ccc(NC(=O)c3ccncc3)cc2CC(=O)N([C@H](C)CO)C[C@H]1C | i | i | i | i
CCC(=O)Nc1ccc(Br)cc1-c1nnc(SC)[nH]c1=O | i | i | i | i
Cc1noc(C)c1NC(=O)N(C)C[C@H]1OCCCC[C@@H](C)Oc2ccc(N(C)C)cc2C(=O)N([C@@H](C)CO)C[C@@H]1C | i | i | i | i
CC(=O)c1cccc(NC(=O)CSc2nc(-c3ccccc3)c(-c3ccccc3)o2)c1 | i | i | i | i
CC(C)NC(=O)Nc1ccc2c(c1)C(=O)N([C@@H](C)CO)C[C@@H](C)[C@H](CN(C)C(=O)c1ccncc1)OCCCC[C@@H](C)O2 | i | i | i | i
Cc1noc(C)c1NC(=O)N(C)C[C@@H]1Oc2c(NC(=O)c3cnccn3)cccc2C(=O)N([C@H](C)CO)C[C@@H]1C | i | i | i | i
O=C(CSc1ncccn1)Nc1cccc2ccccc12 | i | i | i | i
Cc1ccc(C(=O)CSc2nnc(N)s2)c(C)c1 | i | i | i | i
CN1CC[C@]23c4ccccc4N[C@H]1[C@]21CCN(C)[C@H]3Nc2ccccc21 | i | i | i | i
C[C@H](CO)N1C[C@H](C)[C@@H](CN(C)Cc2ccc3c(c2)OCO3)Oc2c(NS(=O)(=O)c3cn(C)cn3)cccc2C1=O | i | i | i | i
C[C@@H]1CCCCO[C@@H](CN(C)S(=O)(=O)c2ccccc2)[C@H](C)CN([C@H](C)CO)C(=O)c2cc(NC(=O)CCCN(C)C)ccc2O1 | i | i | i | i
C[C@H]1CN([C@@H](C)CO)C(=O)c2cc(NC(=O)NC3CCCCC3)ccc2O[C@@H]1CN(C)S(=O)(=O)c1ccccc1 | i | i | i | i
C[C@@H]1CN([C@H](C)CO)C(=O)c2cccc(NS(=O)(=O)c3cn(C)cn3)c2O[C@H]1CN(C)Cc1ccc(C(F)(F)F)cc1 | i | i | i | i
CCc1c(O)nc(SCC(=O)N(c2ccccc2)c2ccccc2)[nH]c1=O | i | i | i | i
Cc1ccc(NC(=O)Cn2cnc3sc(C(=O)Nc4ccccc4)c(C)c3c2=O)cc1 | i | i | i | i
Cc1noc(C)c1NC(=O)N(C)C[C@@H]1Oc2ccc(NC(=O)Nc3cccc4ccccc34)cc2C(=O)N([C@H](C)CO)C[C@@H]1C | i | i | i | i
C[C@@H]1CN([C@@H](C)CO)C(=O)c2cccc(NC(=O)Nc3ccccc3)c2O[C@H]1CN(C)S(=O)(=O)c1cccs1 | i | x | i | i
CC(C)NC(=O)N(C)C[C@H]1OCCCC[C@H](C)Oc2ccc(NS(=O)(=O)c3ccccc3)cc2C(=O)N([C@@H](C)CO)C[C@@H]1C | i | i | i | i
C[C@H]1CN([C@@H](C)CO)C(=O)c2cccc(N(C)C)c2O[C@@H]1CN(C)C(=O)Nc1ccc2c(c1)OCO2 | i | x | i | i

One compound at a time, from the list above. Screens in order: mut p53 SMM | ID4 binder | STAT3 SMM | Myc binder
Listed for `Cc1noc(C)c1NC(=O)N(C)C[C@@H]1Oc2c(NC(=O)c3cnccn3)cccc2C(=O)N([C@H](C)CO)C[C@@H]1C` : i | i | i | i
Listed for `CCc1c(O)nc(SCC(=O)N(c2ccccc2)c2ccccc2)[nH]c1=O` : i | i | i | i
Listed for `Cc1ccc(NC(=O)Cn2cnc3sc(C(=O)Nc4ccccc4)c(C)c3c2=O)cc1` : i | i | i | i
Listed for `C[C@@H]1CN([C@@H](C)CO)C(=O)c2cccc(NC(=O)Nc3ccccc3)c2O[C@H]1CN(C)S(=O)(=O)c1cccs1` : i | x | i | i
Listed for `CC(C)NC(=O)N(C)C[C@@H]1OCCCC[C@H](C)Oc2ccc(NS(C)(=O)=O)cc2C(=O)N([C@@H](C)CO)C[C@@H]1C` : i | i | i | i

Next section:
SMILES | mut p53 SMM | ID4 binder | STAT3 SMM | Myc binder
CC(C)(C)c1ccc(OCc2nnc(Sc3ccc([N+](=O)[O-])cn3)n2-c2ccccc2)cc1 | i | i | i | i
COc1ccc(S(=O)(=O)N(C)C[C@H]2Oc3c(NC(=O)C4CCOCC4)cccc3C(=O)N([C@@H](C)CO)C[C@@H]2C)cc1 | i | i | i | i
C=C(C)C1CCC2(C(=O)O)CCC3(C)C(CCC4C5(C)C(C=O)C(O)C(C)(C)C5CCC43C)C12 (stereo unspecified) | i | i | i | i
COc1ccc(C(=O)NCC(=O)Nc2cc(OC)ccc2OC)cc1 | i | + | i | i
CNC[C@@H]1OCCCC[C@@H](C)Oc2ccc(NS(=O)(=O)c3cn(C)cn3)cc2C(=O)N([C@@H](C)CO)C[C@@H]1C | i | i | i | i
O=C(CNS(=O)(=O)c1ccccc1)Nc1cc(Cl)cc(Cl)c1 | i | i | i | i
C[C@H](CO)N1C[C@H](C)[C@@H](CN(C)S(=O)(=O)c2ccccc2)Oc2ccc(N(C)C)cc2C1=O | i | i | i | i
COc1ccc(CN(C)C[C@H]2Oc3ccc(NC(=O)Nc4ccc5c(c4)OCO5)cc3CC(=O)N([C@@H](C)CO)C[C@@H]2C)cc1 | i | i | i | i
Cc1cc(C)n(CC(O)Cn2c3ccccc3c3ccccc32)c(=O)n1 (stereo unspecified) | i | i | i | i
C[C@H]1CCCCO[C@@H](CN(C)C(=O)c2ccccc2)[C@@H](C)CN([C@@H](C)CO)C(=O)c2cc(NS(=O)(=O)c3cccs3)ccc2O1 | i | x | i | i
C[C@H](CO)N1C[C@H](C)[C@H](CN(C)C(=O)Nc2ccccc2)Oc2ncc(/C=C/c3ccccc3)cc2C1=O | i | + | i | i
Cc1noc(C)c1NC(=O)N(C)C[C@H]1Oc2ccc(NC(=O)C3CC3)cc2C(=O)N([C@H](C)CO)C[C@@H]1C | i | i | i | i
COc1cc(O)c(Cc2ccccc2O)c(O)c1C(=O)CCc1ccccc1 | i | i | i | i
CC(C)=CCCC1(C)C=Cc2c(c(C)cc3c2[nH]c2cc(O)ccc23)O1 (stereo unspecified) | i | x | i | i
C[C@@H]1CCCCO[C@H](CN(C)C)[C@@H](C)CN([C@@H](C)CO)C(=O)c2cc(NC(=O)c3ccncc3)ccc2O1 | i | i | i | i
C[C@H]1CN([C@@H](C)CO)C(=O)c2cc(NC(=O)c3ccncc3)ccc2O[C@H]1CN(C)C(=O)NC1CCCCC1 | i | i | i | i
C[C@@H]1CN([C@H](C)CO)C(=O)c2cccc(NC(=O)Nc3cccc4ccccc34)c2O[C@@H]1CN(C)Cc1ccc2c(c1)OCO2 | i | i | i | i
Cc1cccc(-n2c3c(c(=O)[nH]c2=S)C(NC(=O)CN2CCCC2=O)(C(F)(F)F)C(=O)N3)c1 (stereo unspecified) | i | i | i | i
CN1C(=O)CC(c2ccccc2)C1=O (stereo unspecified) | i | i | i | i
C[C@H](CO)N1C[C@H](C)[C@H](CN(C)S(=O)(=O)c2cccs2)Oc2c(NC(=O)c3ccc(-c4nccs4)cc3)cccc2C1=O | i | i | i | i
OC(CSc1ccccn1)CC(O)c1ccccc1 (stereo unspecified) | i | i | i | i
Cc1ccc(OC(=O)N(C)C[C@H]2OCc3cn(nn3)CCCC(=O)N([C@H](C)CO)C[C@@H]2C)cc1 | i | i | i | i
C[C@@H]1CN([C@H](C)CO)C(=O)c2cccc(NC(=O)C3CCOCC3)c2O[C@H]1CN(C)Cc1ccc(Cl)c(Cl)c1 | i | i | i | i
C[C@@H]1CCCCO[C@@H](CN(C)Cc2ccccc2)[C@@H](C)CN([C@H](C)CO)C(=O)c2cc(NS(=O)(=O)c3ccccc3)ccc2O1 | i | i | i | i
O=C(CNS(=O)(=O)c1ccccc1)Nc1ccc2c(c1)OCCO2 | i | i | i | i
Other entries follow.
SMILES | mut p53 SMM | ID4 binder | STAT3 SMM | Myc binder
C[C@H]1CCCCO[C@H](CN(C)C(=O)c2ccncc2)[C@@H](C)CN([C@@H](C)CO)C(=O)c2cc(N(C)C)ccc2O1 | i | i | i | i
COc1ccccc1-n1c(SCC(=O)c2ccc3c(c2)CCCC3)nc2ccccc2c1=O | i | i | i | i
CC(C)NC(=O)Nc1ccc2c(c1)C(=O)N([C@H](C)CO)C[C@@H](C)[C@@H](CN(C)C(=O)c1ccncc1)OCCCC[C@H](C)O2 | i | i | i | i
C[C@@H]1CCCCO[C@@H](CN(C)C(=O)c2ccccc2)[C@H](C)CN([C@H](C)CO)C(=O)c2cc(NS(=O)(=O)c3cn(C)cn3)ccc2O1 | i | i | i | i
O=C(Cn1cnc([N+](=O)[O-])n1)Nc1ccc(N2CCOCC2)c(Cl)c1 | i | i | i | i
COc1ccc(S(=O)(=O)Nc2cccc3c2O[C@H](CN(C)Cc2ccc(C(F)(F)F)cc2)[C@H](C)CN([C@H](C)CO)C3=O)cc1 | i | i | i | i
CCO[C@@H]1OC(C(=O)N2CCOCC2)=C[C@H](c2ccc(Br)cc2)[C@H]1CCCO | i | x | i | i
CC(C)NC(=O)Nc1ccc2c(c1)C(=O)N([C@H](C)CO)C[C@@H](C)[C@@H](CN(C)Cc1ccc(C(F)(F)F)cc1)OCCCC[C@@H](C)O2 | i | x | i | i
C=C1CCC2(C(=O)OC3OC(CO)C(O)C(O)C3O)CCC3(C)C(=CCC4C5(C)CC(O)C(OC6OCC(O)C(O)C6OC6OC(CO)C(O)C(O)C6O)C(C)(CO)C5CCC43C)C2C1 (stereo unspecified) | i | i | i | i
CC(=O)c1ccc(O[C@@H]2O[C@H](CO)[C@@H](O)[C@H](O)[C@H]2O)c(/C=C/C(C)(C)O)c1 | i | x | i | i
Nc1nc(-c2ccco2)nn1C(=O)c1ccco1 | i | i | i | i
COc1ccc(NC(=O)Nc2ccc3c(c2)CC(=O)N([C@H](C)CO)C[C@H](C)[C@H](CN(C)S(=O)(=O)c2ccc(Cl)cc2)O3)cc1 | i | i | i | i
C[C@@H]1CCCCO[C@@H](CN(C)Cc2ccncc2)[C@@H](C)CN([C@H](C)CO)C(=O)c2cc(NS(C)(=O)=O)ccc2O1 | i | i | i | i
O=C(NCCN1CCOCC1)c1cc2ccccc2o1 | i | i | i | i
CC(C)[C@@H]1NC(=O)[C@H](Cc2ccccc2)NC(=O)[C@@H](CC(=O)O)NC(=O)CNC(=O)[C@H](CCCN=C(N)N)NC1=O | i | i | i | i
C[C@@H]1CCCCO[C@@H](CN(C)C(=O)c2ccncc2)[C@@H](C)CN([C@@H](C)CO)C(=O)c2cc(NS(=O)(=O)c3ccc(Cl)cc3)ccc2O1 | i | x | i | i
COc1cc2c(cc1OC)CN(C(=O)[C@@H]1[C@H]3C(=O)O[C@H](c4ccccc4)[C@H](c4ccccc4)N3[C@H](c3ccccc3OCCO)[C@@]13C(=O)Nc1ccccc13)CC2 | i | i | i | i
C[C@@H]1CN([C@H](C)CO)C(=O)c2cc(NC(=O)Nc3ccccc3)ccc2O[C@H]1CN(C)C(=O)Nc1cccc2ccccc12 | i | x | i | i
CNC[C@@H]1OCCCC[C@@H](C)Oc2ccc(NC(=O)c3ccncc3)cc2C(=O)N([C@H](C)CO)C[C@@H]1C | i | i | i | i
C[C@@H]1CN([C@@H](C)CO)C(=O)c2cccc(NC(=O)c3cnccn3)c2O[C@H]1CN(C)C(=O)Nc1cccc2ccccc12 | i | i | i | i
C[C@@H]1CN([C@@H](C)CO)C(=O)CCCn2nncc2CO[C@H]1CN(C)Cc1ccccc1 | i | i | i | i
COC(=O)c1ccccc1NC(=O)CCSc1ccc(C)cc1 | i | i | i | i
Cc1noc(C)c1S(=O)(=O)Nc1ccc2c(c1)C(=O)N([C@@H](C)CO)C[C@H](C)[C@@H](CN(C)C(=O)Nc1ccccc1)OCCCC[C@H](C)O2 | i | i | i | i
CC(C)NC(=O)Nc1cccc2c1O[C@H](CN(C)Cc1ccc(Oc3ccccc3)cc1)[C@H](C)CN([C@@H](C)CO)C2=O | i | i | i | i

Screening results deposited in PubChem by Broad Institute.
